Assay outcomes: PubChem BioAssay, several laboratories
Tb hexokinase – Trypanosoma brucei hexokinase 1 inhibitors, primary screen, biochemical, G6PDH-coupled NADH absorbance, MLSCN library; hexokinase 1 [Trypanosoma brucei]; recombinant TbHK1, G6PDH-coupled NADH A340; inhibition, % at 10 µM; 0.11% of 220,000 active;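 active = inhibition of 50% or more in the single-dose primary screen; inactive = inhibition below 50%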
PGE2 EP2 inh – human EP2 receptor antagonists, primary screen, TR-FRET cAMP, C6 glioma cells; Prostaglandin E2 receptor EP2 subtype (Homo sapiens), P43116; C6 glioma cells expressing human EP2; cells stimulated with saturating PGE2; inhibition, % at 25 µM; 0.52% of 260,000 active; AID 1422, 2008;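 active = percent inhibition above 40 after rounding to a whole number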;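 note: rat C6 glioma host cells with rolipram phosphodiesterase inhibitor present; the protocol text gives 20 µM as final concentration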
Target sequence (P43116 whole entry, looked up): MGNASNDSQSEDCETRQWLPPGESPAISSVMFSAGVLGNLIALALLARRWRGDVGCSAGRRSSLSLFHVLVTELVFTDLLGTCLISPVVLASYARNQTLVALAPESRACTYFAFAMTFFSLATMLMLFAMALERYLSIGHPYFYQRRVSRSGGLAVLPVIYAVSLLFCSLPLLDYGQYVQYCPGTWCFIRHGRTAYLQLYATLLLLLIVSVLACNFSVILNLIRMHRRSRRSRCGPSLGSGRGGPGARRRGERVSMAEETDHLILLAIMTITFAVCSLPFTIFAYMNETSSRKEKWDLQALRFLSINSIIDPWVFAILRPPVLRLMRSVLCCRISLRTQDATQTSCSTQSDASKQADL
L929 necroptosis – inhibitors of zVAD-triggered necroptosis, primary screen, L929 cells. AID 1377, 2008. L929 zVAD necroptosis rescue, ATP luminescence, 24 h; with zVAD 60 µM. viability rescue, % at 10 µM. 0.38% of 220,000 active;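 active = activation, scaled between plate controls, above about 75%, limit read from the data; inactive = activation under that limit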;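 note: 0% = zVAD with DMSO and 100% = DMSO alone without zVAD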
Wee1 degr inh – Wee1 degradation inhibitors, primary screen, cell-based, HeLa, Wee1K328M-luciferase, luminescence; HeLa Luc-Wee1K328M stability; 100% = proteasome inhibitor MG132 effect; reporter increase, % at 5 µM; 1.2% of 220,000 active;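 active = activation above the mean of all tested compounds plus 3 SD, set per screening run, cut at about 8.8% in these data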;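 note: cells exposed to compound for 20 h before luminescence read; 0% = DMSO alone and 100% = MG132 at 30 µM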
Target sequence (P30291 whole entry K328M): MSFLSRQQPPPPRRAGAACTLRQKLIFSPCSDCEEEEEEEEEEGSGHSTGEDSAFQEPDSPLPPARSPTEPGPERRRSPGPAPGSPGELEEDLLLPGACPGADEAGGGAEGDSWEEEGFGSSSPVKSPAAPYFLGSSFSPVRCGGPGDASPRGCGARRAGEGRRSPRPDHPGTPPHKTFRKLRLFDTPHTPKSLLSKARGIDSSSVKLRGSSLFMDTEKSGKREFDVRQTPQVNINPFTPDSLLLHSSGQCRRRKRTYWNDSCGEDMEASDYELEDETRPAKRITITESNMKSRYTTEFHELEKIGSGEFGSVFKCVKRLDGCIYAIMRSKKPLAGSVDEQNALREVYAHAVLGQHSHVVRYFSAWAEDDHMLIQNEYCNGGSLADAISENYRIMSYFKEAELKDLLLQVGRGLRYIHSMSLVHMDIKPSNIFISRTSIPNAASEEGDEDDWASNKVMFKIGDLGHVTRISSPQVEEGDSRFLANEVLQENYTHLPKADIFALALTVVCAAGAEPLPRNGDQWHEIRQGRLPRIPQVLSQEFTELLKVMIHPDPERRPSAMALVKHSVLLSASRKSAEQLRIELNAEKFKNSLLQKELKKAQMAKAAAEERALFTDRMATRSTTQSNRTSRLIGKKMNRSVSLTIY
TNF death inh – inhibitors of TNF-alpha triggered necroptosis, primary screen, cell-based, Jurkat FADD-/-, single concentration | activation (protection from cell death), % at 10 µM | Jurkat FADD-/- TNF necroptosis rescue, ATP luminescence, 24 h; 0 = TNF only, 100 = no-TNF cells | AID 463075, 2010 | 0.068% of 220,000 active;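 active = activation, meaning protection from cell death, of at least 50% relative to plate controls; inactive = activation below 50%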;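 note: necroptosis triggered by 40 ng/mL TNF-alpha added together with compound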
PPC-1+TRAIL kill – compounds killing PPC-1 cancer cells with TRAIL present, primary screen, TRAIL potentiator project, ATPLite luminescence, uHTS. AID 1443, 2008. PPC-1 cells + TRAIL, ATPLite viability luminescence. cell killing (% activity), % at 4 µM. 0.41% of 220,000 active;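 active = cell killing above 50% in the first pass at 4 µM, then a duplicate retest at 5 µM averaging 50% or more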;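 note: plate controls were cells with TRAIL plus DMSO for no effect and medium-only wells lacking cells for full effect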
CHOP inh – inhibitors of CHOP promoter induction, primary screen, cell-based, unfolded protein response, luciferase reporter; 3.8% of 220,000 active; CHO-K1 CHOP-promoter luciferase, tunicamycin-induced, 15-18 h; inhibition, % at 10 µM; AID 2732, 2010;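 active = compounds that reduced the stress-induced luciferase reporter signal by more than about 70% of percent inhibition, limit read from the data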;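 note: 0% = tunicamycin plus vehicle and 100% = wells without tunicamycin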
Active calls of the source: *; . = not tested or not shown. The list is partial, so the mix of outcomes need not match the whole.

1: Cc1ccc(O)c(NC(=S)NC(=O)c2ccccc2Cl)c1
2: O=C(Oc1ccccc1N1C(=O)CCC1=O)c1ccco1
3: COc1ccc(N(C(C)=O)S(=O)(=O)c2cccc3cccnc23)cc1
4: Cc1cccc(-c2n[nH]c(=S)n2/N=C/C=C/c2ccco2)c1
5: CC12CCC(C(=O)Nc3ccccc3)(C/C1=N\O)C2(C)C (configuration not stated)
6: COc1cc(C=C(C(C)=O)C(C)=O)ccc1O
7: O=C(NC1CCCCC1)C1CCN(c2cnccn2)CC1
8: COc1cccc(C(=O)COc2ccccc2N2C(=O)C3C4C=CC(C4)C3C2=O)c1 (configuration not stated)
9: Cc1cc(C(=O)N2CCN(c3ccccc3)CC2)c(C)o1
10: COc1ccc(NC(=O)C2(c3ccc(NC(=O)c4ccc(OC(C)=O)cc4)cc3)CCCC2)cc1

Screen / compound no.	1	2	3	4	5	6	7	8	9	10
Tb hexokinase	4	-6	30	-56	1	-30	-10	-7	-4	7
PGE2 EP2 inh	19	15	5	14	3	13	-2	2	7	13
L929 necroptosis	2.1	1.6	0.7	1.4	0.3	0.5	0.1	-0.2	-0.1	0.1
Wee1 degr inh	-2	0	-2	1	-2	-1	-3	1	0	-2
TNF death inh	-4.5	-0.1	1.0	-2.0	-0.6	2.0	-2.0	2.9	-0.4	-2.5
PPC-1+TRAIL kill	35	.	4	-7	7	22	-8	-2	-11	17
CHOP inh	29	-8	7	-1	39	19	-1	-18	12	-13

11: Cc1ccc(C2CC(=O)NC3=C2C(=O)CCC3)cc1Br (configuration not stated)
12: CSc1nnc2c(n1)[nH]c1c(C)cccc12
13: CCOC(=O)N1CCN(C(=O)C2CCCCC2)CC1
14: Cc1ccc2[nH]c(=O)c(-c3noc(CC(C)C)n3)cc2c1
15: Cc1onc(-c2ccccc2)c1C(=O)n1cccn1
16: O=C(c1ccc2c(c1)OCO2)N1CCN=C1SCc1cccnc1
17: COc1ccc(C2=NOC(C(=O)NCc3ccc(F)cc3)C2)cc1OC (configuration not stated)
18: COc1ccc(Br)cc1/C=N/n1c(C)nnc1C
19: O=C(O)c1cc(Cl)c(Cl)cc1C(=O)N1CCCC1
20: C[C@H](NC(=O)c1nc[nH]c1C(=O)N1CCc2ccccc2C1)C(=O)OC(C)(C)C

Screen / compound no.	11	12	13	14	15	16	17	18	19	20
Tb hexokinase	2	-9	-2	-13	2	3	-3	-16	9	-8
PGE2 EP2 inh	9	5	10	14	11	18	.	11	9	15
L929 necroptosis	-0.2	0.0	-0.2	0.5	0.0	1.0	0.0	-0.2	1.3	0.1
Wee1 degr inh	-2	2	-2	-1	0	-3	-1	-1	1	.
TNF death inh	-0.7	-0.2	0.4	-0.7	0.4	-1.8	-11	-1.8	-0.4	0.0
PPC-1+TRAIL kill	3	28	2	8	19	25	10	-2	22	11
CHOP inh	7	33	21	11	-10	17	.	66	12	-11

21: COc1ccccc1C1/C(=C(/O)c2ccccc2)C(=O)C(=O)N1CC(C)O (configuration not stated)
22: COCCCN=C1NN=C(c2cc(C)n(Cc3ccccc3Cl)c2C)CS1
23: O=C(Oc1cccc2ccccc12)c1ccco1
24: CCOC(=O)Cc1cc(=O)[nH]c(/N=C(\N)Nc2ccc(OC)cc2)n1
25: Fc1ccc(-n2ncc3c(SCc4cccnc4)ncnc32)cc1
26: C/C(=N\NC(=O)c1ccc(CSc2nncn2C)cc1)c1ccc(C#N)cc1
27: Cc1cc(C)c2nc(NC(=O)C3CCCO3)sc2c1 (configuration not stated)
28: COc1ccc(CN(CCC(c2ccco2)C(C)C)C(C)=O)cc1OC (configuration not stated)
29: COc1ccc(-c2cc3ccccc3oc2=O)cc1NC(=S)NC(=O)c1ccc2c(c1)OCCO2
30: CCN(CC)CCn1c(NC(=O)c2ccc(C(F)(F)F)cc2)nc2ccccc21

Screen / compound no.	21	22	23	24	25	26	27	28	29	30
Tb hexokinase	-19	-9	3	-1	-5	-4	1	-5	-12	-5
PGE2 EP2 inh	13	6	8	6	9	8	12	9	10	6
L929 necroptosis	0.6	-1.9	0.9	0.3	4.4	0.6	-1.0	-1.0	-0.1	0.2
Wee1 degr inh	-2	-1	-1	1	-1	-1	9.4*	1	1	13*
TNF death inh	0.6	-16	-1.5	0.2	-1.9	2.8	4.7	1.6	0.4	0.9
PPC-1+TRAIL kill	-20	0	18	0	-3	9	0	13	30	-39
CHOP inh	-24	21	28	-6	52	3	5	3	-13	47

31: CCOc1cc(/C=C2/C(=N)N3OC(C)=CC3=NC2=O)ccc1OCCOc1ccccc1
32: COc1ccc(CNc2nc(NCc3ccc(OC)cc3)n(C(=O)c3ccccc3[N+](=O)[O-])n2)cc1
33: COc1ccc2c(c1)c(=O)oc1c(C)c(OCC(=O)N3CCc4ccccc4C3)ccc12
34: CN(c1ccc(OCc2nnc(-c3ccccc3)o2)cc1)S(=O)(=O)c1ccccc1
35: CCOC(=O)c1c(NC2OC(=O)c3c2ccc(OC)c3OC)sc(C(=O)OC(C)(C)C)c1C (configuration not stated)
36: Nc1nc(-c2ccco2)nn1C(=O)c1ccccc1Cl
37: Cc1ccc(OCCCC(=O)Nc2ccc(S(N)(=O)=O)cc2)cc1
38: O=C1c2cccnc2C(=O)N1c1cccc(-c2nc3ccccc3o2)c1
39: COc1ccc(C(=O)NCCCN2CCOCC2)cc1OC
40: CSCCC(Nc1ccc(S(=O)(=O)N2CCOCC2)cc1[N+](=O)[O-])C(=O)OCC(=O)NCC(C)C (configuration not stated)

Screen / compound no.	31	32	33	34	35	36	37	38	39	40
Tb hexokinase	0	-4	-6	11	-4	2	0	3	-3	31
PGE2 EP2 inh	7	0	.	12	6	4	1	7	4	7
L929 necroptosis	1.2	0.8	-0.1	1.0	1.5	-0.1	1.4	0.0	0.0	1.2
Wee1 degr inh	1	-2	-4	-1	-2	4	-3	-1	2	-3
TNF death inh	0.3	-6.9	-3.4	-0.7	1.7	-2.4	0.7	0.4	-1.5	1.0
PPC-1+TRAIL kill	10	17	34	9	17	-9	26	18	-13	23
CHOP inh	92*	18	24	12	9	-12	29	21	6	16

41: CC(=O)NS(=O)(=O)c1cccnc1Nc1ccc(Cl)cc1
42: CC(=O)c1cccc(N(CC(=O)N2CCOCC2)S(C)(=O)=O)c1
43: CCOc1ccc(C(C)=O)cc1CSc1nnc(-c2ccncc2)n1CCOC
44: CCCC(=O)n1nc(-c2ccco2)nc1SCc1ccccc1
45: Nc1nc2nc(-c3cccs3)cc(C(F)(F)F)n2n1
46: CCCCn1nnnc1NCc1ccc(C)s1
47: NS(=O)(=O)c1cccnc1Nc1cccc(Cl)c1Cl
48: CC(C)S(=O)(=O)c1csc(C(=O)NN)c1-n1cccc1
49: CCC1CCCCN1CC(=O)c1c(C)[nH]c2ccc(OC)cc12 (configuration not stated)
50: NNC(=O)c1cc2nc(-c3cccs3)cc(C(F)(F)F)n2n1

Screen / compound no.	41	42	43	44	45	46	47	48	49	50
Tb hexokinase	-8	3	1	-1	-18	3	-5	5	-9	-11
PGE2 EP2 inh	9	10	4	8	9	9	10	2	10	4
L929 necroptosis	0.1	-0.2	1.2	1.3	2.0	-0.2	-0.9	0.1	0.6	8.6
Wee1 degr inh	-1	-3	-3	-1	-2	1	3	2	-1	2
TNF death inh	0.3	0.6	0.7	1.4	-2.3	-1.4	-2.8	0.1	3.7	0.3
PPC-1+TRAIL kill	-8	-1	6	17	28	-3	17	5	20	21
CHOP inh	9	-11	18	59	-1	3	37	1	8	-2

51: Cc1nc2cc(F)ccc2n1C1CCN(S(=O)(=O)c2ccccc2)CC1
52: Cc1ccc(OC(=O)c2ccc3nc(C)sc3c2)cc1
53: O=C(CSc1ccc(C(F)(F)F)cc1[N+](=O)[O-])NCCOc1ccccc1
54: CC1CCN(c2ccc(C(F)(F)F)cc2N)CC1
55: CCN(CC)S(=O)(=O)c1ccc(/C=C/C(=O)OCC(=O)Nc2ccc(S(N)(=O)=O)cc2)cc1
56: CCOC(=O)/C(=N\O)C1=NC(C)(C)Cc2ccccc21
57: Cc1nc(N)nc(-c2ccccc2O)n1
58: CCN1CCN(c2oc(/C=C/c3ccccc3)nc2C#N)CC1
59: N#Cc1ccc(COC(=O)c2cc(=O)c3ccccc3o2)cc1
60: O=C(COc1ccc2ccccc2c1)N/N=C/c1ccccn1

Screen / compound no.	51	52	53	54	55	56	57	58	59	60
Tb hexokinase	-3	-3	4	6	0	-1	-15	-54	-5	-1
PGE2 EP2 inh	6	6	7	7	8	7	3	11	7	12
L929 necroptosis	0.7	0.8	0.4	0.1	0.1	0.6	1.9	0.8	2.3	8.1
Wee1 degr inh	5	-3	-1	2	2	1	2	-2	0	1
TNF death inh	-1.8	-1.3	0.8	0.4	2.7	0.9	3.2	2.6	0.1	0.1
PPC-1+TRAIL kill	17	25	-2	12	18	-2	11	19	10	-2
CHOP inh	-9	41	31	-2	-21	19	46	0	8	13

Given bar-delimited: part of the list above
No. | structure | Tb hexokinase | PGE2 EP2 inh | L929 necroptosis | Wee1 degr inh | TNF death inh | PPC-1+TRAIL kill | CHOP inh
52 | Cc1ccc(OC(=O)c2ccc3nc(C)sc3c2)cc1 | -3 | 6 | 0.8 | -3 | -1.3 | 25 | 41
53 | O=C(CSc1ccc(C(F)(F)F)cc1[N+](=O)[O-])NCCOc1ccccc1 | 4 | 7 | 0.4 | -1 | 0.8 | -2 | 31
54 | CC1CCN(c2ccc(C(F)(F)F)cc2N)CC1 | 6 | 7 | 0.1 | 2 | 0.4 | 12 | -2
55 | CCN(CC)S(=O)(=O)c1ccc(/C=C/C(=O)OCC(=O)Nc2ccc(S(N)(=O)=O)cc2)cc1 | 0 | 8 | 0.1 | 2 | 2.7 | 18 | -21

Next section:
61: CC1=CCCC(C)(C)C1/C=C/C(C)=N/NC(=O)c1ccncc1 (configuration not stated)
62: COc1ccc(C(=O)Oc2ccc(=O)n(-c3ccccc3)n2)cc1
63: Clc1ccccc1-c1nc(-c2ccccc2)n[nH]1
64: COc1ccc(Nc2ncccc2C(=O)Nc2ccccc2)cc1

Screen / compound no.	61	62	63	64
Tb hexokinase	-7	-3	6	-18
PGE2 EP2 inh	4	2	0	31
L929 necroptosis	4.8	-0.2	1.5	7.6
Wee1 degr inh	-2	1	2	2
TNF death inh	2.7	-5.3	-1.3	1.7
PPC-1+TRAIL kill	23	7	9	18
CHOP inh	0	35	-2	7
